Bioassay records from PubChem BioAssay.
TRPML1 ag: qHTS for Agonists of the Human Mucolipin Transient Receptor Potential 1 (TRPML1); TRPML1-expressing cells, Ca2+ dye fluorescence, FDSS; host cell line not named in the record; reference of the full effect not given here; activation, % (test concentration not listed); 410,000 compounds, 0.12% hits; AID 624414, 2012; in the data active = activation above about 50%; inconclusive = about 30% to 50%; inactive = below about 30%; further: 0% is about no effect; the text of the record puts the active cut at 80%
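Tetracycline-induced TRPML1-DL cells are seeded and incubated overnight before loading with a no-wash Ca2+ dye and quencher. Agonist activity is taken from the 110 s fluorescence read following compound pin-transfer on an FDSS, before EC80 54-4 challenge.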
Six1-Eya2 blk: qHTS Assay for Inhibitors of the Six1/Eya2 Interaction | Homeobox protein SIX1 (Homo sapiens) + Protein phosphatase EYA2 (Homo sapiens), … | AlphaScreen GST-Six1/His-Eya2 binding, biochemical; hits give low values; control for the full effect not named in the record | activity change, % (no concentration beside the values) | 360,000 compounds, 0.56% hits; in the data active = activity change below about -65%; inconclusive = about -30% to -65%; inactive = above about -30%; further: on the % scale 0 is the no-effect control and ±100 the full control effect
Target sequence (O00167 whole entry, looked up): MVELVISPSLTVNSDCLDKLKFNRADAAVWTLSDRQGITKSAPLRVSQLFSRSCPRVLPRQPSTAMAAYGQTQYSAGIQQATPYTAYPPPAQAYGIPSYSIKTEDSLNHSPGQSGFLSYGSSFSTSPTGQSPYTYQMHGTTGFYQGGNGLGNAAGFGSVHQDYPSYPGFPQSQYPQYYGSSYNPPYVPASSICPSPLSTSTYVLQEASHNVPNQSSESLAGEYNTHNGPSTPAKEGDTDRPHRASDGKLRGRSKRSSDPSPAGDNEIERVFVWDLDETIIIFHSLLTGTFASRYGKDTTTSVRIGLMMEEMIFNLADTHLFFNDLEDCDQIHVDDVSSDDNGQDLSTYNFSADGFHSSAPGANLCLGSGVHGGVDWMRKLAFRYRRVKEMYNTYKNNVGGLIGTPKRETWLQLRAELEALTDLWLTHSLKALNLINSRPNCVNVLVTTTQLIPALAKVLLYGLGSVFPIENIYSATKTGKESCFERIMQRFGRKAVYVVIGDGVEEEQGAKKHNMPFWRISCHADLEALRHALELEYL
Target sequence (Q15475 whole entry, looked up): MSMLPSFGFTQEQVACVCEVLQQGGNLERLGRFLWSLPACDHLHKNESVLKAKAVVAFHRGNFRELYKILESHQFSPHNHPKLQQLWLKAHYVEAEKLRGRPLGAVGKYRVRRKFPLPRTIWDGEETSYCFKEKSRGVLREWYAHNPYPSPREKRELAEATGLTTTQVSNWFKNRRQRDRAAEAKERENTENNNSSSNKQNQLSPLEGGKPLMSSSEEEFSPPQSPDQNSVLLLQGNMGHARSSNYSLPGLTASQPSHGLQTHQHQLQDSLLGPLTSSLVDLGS
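Six1/Eya2 binding was read as AlphaScreen signal after compounds were pinned into GST-Six1 plus His-tagged Eya2 (5X stock 250/500 nM) in pH 8.0 Tris/NaCl/TCEP buffer, beads added, then incubated 1 h, 37 C, dark.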
PINK1 modulator: A Quantitative High throughput Screen to Identify Chemical Modulators of PINK1 Expression | 410,000 compounds, 0.2% hits | Potency, µM (highest dose often 76.6 µM), inactives show at the top dose activation (PINK1 increase), hits mostly activators | AID 624263, 2012 | PINK1 immunofluorescence, high-content cytometry, 24 h; active = well fitted activation curve with a large enough effect; inconclusive = small, poorly fitted or top-dose-only effect; inactive = flat fitted curve, though single readings scatter; cell line not stated here;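 further: potency means the concentration at half of the fitted maximal effect; % of control where 0% means no effect; nearly all actives have a fitted effect of over 65% in size; a mitochondrial uncoupler was the plate control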
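Cells are seeded, rested 12 hours, then given compound at five concentrations or DMSO for 24 hours. After fixation, blocking and antibody staining, PINK1 amount and mitochondrial localization are scored; CCCP serves as control.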
D2 potentiator: Beta-Arrestin HTS for Positive Allosteric Modulators of the Human D2 Dopamine Receptor: Potentiators; DiscoveRx D2 beta-arrestin cells, luminescence, 90 min; 100% = 57 uM dopamine signal; potentiation, % (test concentration not listed); 360,000 compounds, 0.23% hits; AID 624464, 2012; active = potentiation of 50% or more; inconclusive = 30% to 50%; inactive = 30% or less;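 further: compound concentration not given in the record; tested on top of an EC20 dose of dopamine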
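PathHunter D2 cells, attached overnight at 37 deg C, received compound in DMSO plus dopamine at EC20 (50 nM final) for 90 min at 37 deg C. Beta-arrestin recruitment was read as luminescence after 1 h with detection reagent at ambient temperature.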
D2 ag: Beta-Arrestin HTS for Positive Allosteric Modulators of the Human D2 Dopamine Receptor: Agonists; 360,000 compounds, 0.084% hits; DiscoveRx PathHunter D2 beta-arrestin, luminescence, 90 min; 100% = 57 uM dopamine signal; D(2) dopamine receptor (Homo sapiens), P14416; activation, % (concentration not given with the values); AID 624465, 2012; in the data active = activation above about 40%; inconclusive = about 15% to 40%; inactive = below about 15%; further: the text of the record calls up to 30% inactive
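DiscoveRx PathHunter D2 beta-arrestin cells (2,100/well) attached overnight, then compound-stimulated 90 min at 37 C in HBSS/10 mM HEPES/0.1% Tween-20 buffer; beta-galactosidase complementation read by luminescence after 1 h at ambient temperature. Dopamine 57 uM final (EC100) as control.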
CtBP-E1A inh: qHTS Assay for Inhibitors of the CtBP/E1A Interaction. CtBP / adenovirus E1A interaction (AlphaScreen). AlphaScreen GST-E1A/His-CtBP binding, 1536-well; hits give low values; control for the full effect not named in the record. activity change, % (no concentration beside the values). 340,000 compounds, 0.49% hits. AID 651724, 2012; in the data active means activity change below about -65%; inconclusive means about -30% to -65%; inactive means above about -30%; further: on the % scale 0 is the no-effect control and ±100 the full control effect
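Protein mix (5X: 125 nM each GST-E1A, His-CtBP) was incubated with pinned compound 2 h at 37 deg C in dark, in 50 mM Tris pH 8.0 buffer with 300 mM NaCl. Glutathione donor and nickel acceptor beads followed; AlphaScreen signal read after 1 h.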
An asterisk follows results filed as active; ? = inconclusive; . = not tested or not shown; & = joins results of further samples; [ ] = dose if it differs, or a comment.

Sample of the layout:
SMILES | TRPML1 ag | Six1-Eya2 blk | PINK1 modulator | D2 potentiator | D2 ag | CtBP-E1A inh
CCCCNC(=O)CSc1nnc(-c2c[nH]c3ccccc23)n1CC1CCCO1 (configuration not stated) | 1.4 | 5 | -2.3%[38.3 µM] | -8 | -1.0 | 1
O=C(COC(=O)c1ccco1)Nc1ccc(Cl)cn1 | 0.6 | 5 | -0.3% | -13 | -1.2 | 0
COc1ccccc1N1CCN(/N=C/c2cccc(O)c2)CC1 | -0.2 | -7 | -0.5% | 0 | -0.1 | 0
N#CCSc1nnc(-c2ccc(F)cc2)n1N | -0.6 | 1 | 0.6% | -2 | -1.1 | 3

All compounds of this part, from the start:
SMILES | TRPML1 ag | Six1-Eya2 blk | PINK1 modulator | D2 potentiator | D2 ag | CtBP-E1A inh
CCCCNC(=O)CSc1nnc(-c2c[nH]c3ccccc23)n1CC1CCCO1 (configuration not stated) | 1.4 | 5 | -2.3%[38.3 µM] | -8 | -1.0 | 1
O=C(COC(=O)c1ccco1)Nc1ccc(Cl)cn1 | 0.6 | 5 | -0.3% | -13 | -1.2 | 0
COc1ccccc1N1CCN(/N=C/c2cccc(O)c2)CC1 | -0.2 | -7 | -0.5% | 0 | -0.1 | 0
N#CCSc1nnc(-c2ccc(F)cc2)n1N | -0.6 | 1 | 0.6% | -2 | -1.1 | 3
COc1ccc(C(=O)Nc2sc(C)c(C)c2CN2CC(C)OC(C)C2)cc1 (configuration not stated) | -0.7 | -4 | 0.5% | -7 | -5.3 | -1
COc1cccc(C(=O)NCCS(=O)(=O)N2CCOCC2)c1 | -0.1 | 3 | -0.5% | 20 | 0.7 | 5
COc1cccc(N2C(=O)C3CCCN3C2=S)c1 (configuration not stated) | -0.2 | 6 | 0.0% | 6 | 0.5 | -22
CC1CC(C)CN(C(=O)COC(=O)c2ccc(S(=O)(=O)N(C)c3ccccc3)cc2)C1 (configuration not stated) | -0.2 | 12 | -0.5% | -6 | -3.9 | .
CCc1ccc(-c2nn(-c3ccccc3C)cc2C(=O)N2CCN(C3CCS(=O)(=O)C3)CC2)cc1 (configuration not stated) | -0.4 | 0 | -0.1% | 0 | 2.3 | -18
O=C(c1ccccc1)n1ccc(-c2cccs2)n1 | -0.9 | -5 | 6.2% | -3 | -3.3 | 16
O=C(NC1CC1)c1cc2c(s1)-c1ccccc1OC2 | -0.9 | -1 | 3.5% | -11 | -0.7 | 4
O=C(COc1ccc2ccccc2c1)N1CCNCC1 | 0.0 | -15 | 2.9% | -4 | -6.1 | 0
COc1ccc(OC)c(CCNC(=O)c2ccc3c(=O)[nH]c4c(C(=O)NC(C)C)sc(=S)n4c3c2)c1 | 1.9 | -9 | 1.1% | -2 | -1.4 | .
Cc1ccc(S(=O)(=O)Cc2ccc(C(=O)N3CCN(c4ccc(F)cc4)CC3)o2)cc1 | 0.9 | -6 | 7.7% | -4 | 0.2 | -2
COCCOC(=O)C1=C(C)NC(=O)NC1c1c(OC)ncnc1OC (configuration not stated) | -0.2 | 5 | -1.5% | 17 | -0.9 | 5
COC(=O)C1=C(C)N(C)C(=O)NC1c1ccsc1 (configuration not stated) | 0.3 | 11 | -1.3% | -3 | 1.3 | .
FC(F)(F)C1CC(c2cccs2)Nc2ncnn21 (configuration not stated) | -0.2 | 4 | -2.1% | 11 | -1.7 | 17
COc1ccccc1N1CCN(C(=O)CCSCc2ccccc2F)CC1 | -0.2&1.3 | 18 | 0.8%&2.9% | -13 | -0.6 | -13
NC(=O)CC(NC(=O)Cc1cccc2ccccc12)c1ccc(NC2CCCCCC2)c([N+](=O)[O-])c1 (configuration not stated) | 0.0 | -30 | 0.0% | -4 | -5.6 | -15
CCN(CC)c1ccc(C=C2SC(=S)NC2=O)cc1 | ? | -18 | ? | -15 | -5.8 | -21
O=c1oc2ccccc2cc1-c1nc(-c2cccs2)cs1 | 0.2 | 55 | 6.6%[38.3 µM] | -6 | -0.1 | 70
COc1ccc(CCC(=O)Nc2ccc(C)c([N+](=O)[O-])c2)cc1 | 0.1 | -20 | 5.2% | -14 | -1.9 | -16
CC(CNC(=S)Nc1cc(F)cc(F)c1)CSc1ccc(Cl)cc1 (configuration not stated) | 1.9 | 0 | ? | -6 | -3.0 | -3
COc1ccccc1NC(=S)N1CCN(c2ncccn2)CC1 | 0.0 | 1 | 0.0% | -4 | -4.4 | -1
CCOc1ccccc1CNC(=O)c1ccccc1NC(=O)C1=CSCCO1 | -0.1 | -6 | 0.9% | -5 | 0.0 | .

Whole records as entered above:
`CCc1ccc(-c2nn(-c3ccccc3C)cc2C(=O)N2CCN(C3CCS(=O)(=O)C3)CC2)cc1` (configuration not stated) across the screens: TRPML1 ag = -0.4; Six1-Eya2 blk = 0; PINK1 modulator = -0.1%; D2 potentiator = 0; D2 ag = 2.3; CtBP-E1A inh = -18
`COc1cccc(N2C(=O)C3CCCN3C2=S)c1` (configuration not stated) across the screens: TRPML1 ag = -0.2; Six1-Eya2 blk = 6; PINK1 modulator = 0.0%; D2 potentiator = 6; D2 ag = 0.5; CtBP-E1A inh = -22
`N#CCSc1nnc(-c2ccc(F)cc2)n1N` across the screens: TRPML1 ag = -0.6; Six1-Eya2 blk = 1; PINK1 modulator = 0.6%; D2 potentiator = -2; D2 ag = -1.1; CtBP-E1A inh = 3

(further entries)
SMILES | TRPML1 ag | Six1-Eya2 blk | PINK1 modulator | D2 potentiator | D2 ag | CtBP-E1A inh
C=C(C)CN(CC)c1nc(N)c(C#N)c(CC#N)c1C#N | 1.7 | -2 | 0.4% | 14 | 0.9 | 0
O=C(NCc1ccc2c(c1)OCO2)c1ccc2c(c1)OCO2 | -0.6 | 3 | -0.4% | -12 | -1.6 | 1
CCc1nc2cccnc2n1-c1ccc(CC(=O)O)cc1 | -0.6 | 9 | 4.6% | 2 | -0.1 | 1
O=C(N/N=C/c1ccccc1O)c1cccc(C(F)(F)F)c1 | -0.1 | -79* | 3.2% | -15 | -4.1 | -81*
Cc1nc(SCC(=O)NCc2ccco2)[nH]c(=O)c1C | -0.4 | -8 | 0.5%[38.3 µM] | -11 | -0.4 | -4
CCC1=Nc2cc(C(=O)NCCN3CCOCC3)ccc2Sc2ccc(C)cc21 | 0.1 | 16 | 0.8% | -2 | -0.8 | 9
CC(C)NC(=O)N(C)C[C@H]1Oc2cc(Br)ccc2S(=O)(=O)N([C@H](C)CO)C[C@H]1C | -0.4 | 8 | 1.0% | -7 | -6.6 | 6
Cc1cc(N2C(=O)Cc3ccccc3C2=O)ccc1C(C)C | -1.1 | 2 | -0.3% | -4 | -0.9 | -18
COc1cccc(/C=C/C(=O)NNC(=O)c2ccco2)c1OC | 0.1 | -2 | -0.8% | -3 | 0.1 | -1
O=C(N1CCN(c2ccc(F)cc2)CC1)C1(c2cccs2)CCOCC1 | 0.6 | -2 | -0.5% | -1 | 0.3 | -13
O=C(CCc1ccc(S(=O)(=O)N2CCOCC2)cc1)NCCc1ccccn1 | -0.5 | 4 | -0.3% | 1 | -0.4 | 3
O=C(N/N=C/c1cccc2ccccc12)c1ccccc1Cl | 2.7 | -6 | 1.9% | -22 | -12 | -21
NS(=O)(=O)c1ccc(N=Nc2c(O)c(C(=O)O)cc3ccccc23)cc1 | -0.3 | -20 | 0.6% | -7 | ? | .
CCCC(=O)Nc1nc(-c2ccc3c(c2)CCN3S(C)(=O)=O)cs1 | -0.3 | -4 | -4.6%[38.3 µM] | -6 | 1.4 | 13
Cc1c(C(=O)OC2CCCCC2)[nH]c2c1C(=O)CC(C)(C)C2 | 1.1 | -3 | 12% | 5 | -3.1 | -2
CCOc1ccc(Cc2c(Cl)nc(SC)nc2N(C)C)cc1 | 1.2 | 32 | 2.4% | 1 | 1.7 | 29
NS(=O)(=O)c1cccc(NC(=O)COC(=O)Cc2ccc(Cl)cc2)c1 | 0.1 | 3 | -1.6% | -3 | -2.3 | 8
N#Cc1cn(CC(=O)NCc2cccnc2)c2ccccc12 | 0.6 | 10 | -6.8%[38.3 µM] | -17 | -2.2 | 0
O=C(OCC(=O)N1CCN(c2cccc(Cl)c2)CC1)c1ccco1 | -0.4 | -1 | -0.5% | -2 | -1.8 | 11
CC1(C)Cc2c(c(-c3ccccc3)nc(N3CCCC3)c2C(N)=O)CO1 | -0.1 | 4 | -0.1% | -17 | 0.7 | 0
Cc1[nH]n(-c2ccc(Br)cc2)c(=O)c1/C=N/NC(=O)c1ccccc1 | 1.0 | -11 | ? | 2 | -4.5 | .
O=C(/C=C/c1ccco1)Oc1ccc(C(=S)N2CCOCC2)cc1 | 0.3 | -89* | 0.9% | -3 | 0.9 | -93*
COc1ccc2nc(C(C)O)[nH]c2c1 (configuration not stated) | 0.6 | 3 | 0.5%[38.3 µM] | -3 | -0.9 | 8
Cc1cccc(N2CCN(C(=O)c3cn4ccccc4n3)CC2C)c1 (configuration not stated) | 0.4 | -4 | 0.2% | -7 | 4.3 | -1
CC1(C)CN(c2ccccc2)N(C(=O)c2ccc(F)cc2)C1=O | -0.4 | 2 | 2.8%[38.3 µM] | -17 | -3.4 | 10
(more compounds)
SMILES | TRPML1 ag | Six1-Eya2 blk | PINK1 modulator | D2 potentiator | D2 ag | CtBP-E1A inh
Cc1ccc(Cl)cc1N1CCN(S(=O)(=O)c2ccc3c(c2)oc(=O)n3C)CC1 | 0.9 | -4 | 1.7%[38.3 µM] | 4 | -0.3 | -1
COc1ccc(NC(=O)c2sc(-c3ccccc3)nc2C)c(OC)c1 | 0.6 | 2 | 6.3% | 1 | -1.1 | 7
O=C1CCCN1C1CCN(Cc2ccccc2)S(=O)(=O)N1 (configuration not stated) | -0.2 | 17 | -1.1% | . | . | -22
Cc1ccc(-c2cc(C)nc3nc(N)nn23)cc1 | 0.5 | -2 | -4.3%[38.3 µM] | -9 | -1.9 | -8
CC1=NN(c2ccc([N+](=O)[O-])cc2)C(=O)C1 | 0.3 | -17 | 3.0% | -22 | -4.8 | -18
O=[N+]([O-])c1cc2oc3c(c2c(C=NCc2ccccc2)c1O)CCCC3 | -0.1 | -16 | 4.7% | -10 | -2.5 | 3
COC(=O)c1cnc(Oc2ccc(NC(=O)NC(=O)c3c(F)cccc3F)cc2)cc1C(F)(F)F | 1.8 | 7 | -0.1% | -1 | 3.0 | 0
COc1ccc(N2CCN(S(=O)(=O)CCNC(=O)c3ccc4c(c3)OCO4)CC2)cc1 | 1.0 | -10 | 0.1% | -9 | -0.7 | -2
Cc1cc2c(c(C)c1CCO)C(=O)[C@H](C)C2 | . | -2 | -0.9% | -33 | -8.7 | -6
O=C(CSc1nccn1Cc1ccc(F)cc1)Nc1ccc(F)cc1F | 0.1 | -1 | -2.3% | -15 | -2.7 | 0
O=C(N/N=C/C1CCCCC1)c1ccccc1-n1cccc1 | 0.1 | 3 | 4.3% | 0 | -3.8 | -10
